miR-21 reporter – miR-21 reporter, rising signal | HeLa miR-21 FLuc reporter, luciferase, 48 h | Potency, µM (top dose mostly 38.3 µM), for the others: at the highest dose reporter change, positive = more light | 340,000 tested, under 10 active | AID 2288; active = well fitted rising curve with a large enough effect; inconclusive = small, poorly fitted or top-dose-only effect; inactive = no such curve, though single readings can be large or run the other way;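 further: % of control where 0% means no effect; miR-21 action dims this reporter so a rising signal means less miR-21 action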
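HeLa miR-21-FLuc reporter line, endogenous miR-21; 2000 cells/well in DMEM/10% FBS; compound titration up to ~40uM final, 48 h, 37 degree Celsius; luciferase detection reagent, 15 min lysis, CCD luminescence.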
GLA inh pH 4.5 – alpha-galactosidase A (human) inhibition, pH 4.5; P06280; activity change, negative = inhibition, % at 105 µM; 230,000 tested, under 10 active; purified enzyme, 4-MU-alpha-Gal fluorescence, pH 4.5; inconclusive = small, poorly fitted or top-dose-only inhibition, or a rising curve; inactive = flat fitted curve, though single readings scatter; no compound was filed as active;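 further: 0% = full activity with enzyme and -100% = basal without enzyme; dose as in the result columns while the protocol names 77 µM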
Rango-impB inh – prevents formation of the Rango-importin beta complex | Q14974 | Rango CFP/YFP FRET sensor + importin beta, 45 min | Potency, µM (series often up to 92.2 µM), for inactives: top-dose inhibition of complex formation | hit rate 0.031% among 340,000 | AID 540263; active = rising FRET ratio curve, often small or poorly fitted; inconclusive = mostly compound fluorescence or quenching in the first reads; inactive = flat curves in all reads;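 further: potency means the concentration at half of the fitted maximal effect; 0% = DMSO wells and 100% = buffer wells lacking importin beta; nearly all actives have a fitted effect of over 15% in size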
Target sequence (Q14974 whole entry, looked up): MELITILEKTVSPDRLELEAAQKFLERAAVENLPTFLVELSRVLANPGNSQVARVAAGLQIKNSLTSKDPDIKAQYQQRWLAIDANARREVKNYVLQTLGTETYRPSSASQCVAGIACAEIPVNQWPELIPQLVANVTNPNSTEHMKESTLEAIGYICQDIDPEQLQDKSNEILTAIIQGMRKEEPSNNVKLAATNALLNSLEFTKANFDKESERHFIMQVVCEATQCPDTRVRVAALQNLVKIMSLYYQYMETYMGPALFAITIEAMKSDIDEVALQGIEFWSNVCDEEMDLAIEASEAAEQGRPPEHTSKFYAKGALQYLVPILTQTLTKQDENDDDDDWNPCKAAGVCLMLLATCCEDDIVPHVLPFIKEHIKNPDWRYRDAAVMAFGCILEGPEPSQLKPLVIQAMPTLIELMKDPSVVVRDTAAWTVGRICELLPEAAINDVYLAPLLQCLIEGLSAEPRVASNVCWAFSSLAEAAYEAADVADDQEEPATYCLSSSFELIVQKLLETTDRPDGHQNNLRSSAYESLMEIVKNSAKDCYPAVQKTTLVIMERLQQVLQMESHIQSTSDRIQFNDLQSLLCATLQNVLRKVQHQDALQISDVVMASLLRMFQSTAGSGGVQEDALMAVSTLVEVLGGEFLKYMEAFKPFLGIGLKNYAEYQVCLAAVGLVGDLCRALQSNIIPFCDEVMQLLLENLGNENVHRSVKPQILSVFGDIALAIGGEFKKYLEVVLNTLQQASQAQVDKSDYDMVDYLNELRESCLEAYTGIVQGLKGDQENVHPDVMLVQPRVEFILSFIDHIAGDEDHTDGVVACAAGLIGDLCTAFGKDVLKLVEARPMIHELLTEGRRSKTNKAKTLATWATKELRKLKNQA
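FRET biosensor Rango (snurportin 1 IBB between N-terminal EYFP and C-terminal Cerulean), 50 nM in PBS/1 mM DTT/0.02% Tween-20/0.1% BSA, preincubated 5 min RT with compound; 0.125 microM importin beta added, 45 min RT, CFP/YFP FRET ratio read.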
Rango release inh – prevents RanGTP from dissociating the Rango-importin beta complex. O95149+P62826. Biochemical FRET Rango-importin beta, RanGTP-induced dissociation. Potency, µM (doses to about 46.1 µM), without a hit: at the top dose activity change, negative = inhibition. hit rate 0.071% among 340,000. AID 540253; active means falling FRET ratio curve, often poorly fitted, with flat reads before Ran was added; inconclusive means other falling curves, or compound fluorescence or quenching; inactive means flat or rising ratio curve;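 further: potency means the concentration at half of the fitted maximal effect; % of control where 0% means no effect; nearly all actives have a fitted effect of over 45% in size; -100% = wells without RanGTP and RCC1; the record marks most hits as doubtful in a second field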
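FRET read at 45 min, room temperature: inhibitors block the CFP/YFP signal rise when RanGTP (0.6 uM Ran, 2 mM GTP, 0.2 uM RCC1) frees Rango (0.1 uM) from importin beta (0.25 uM). Pre-read after 5 min compound exposure flags interference.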
Starred values were filed as active, the others as inactive; ? = inconclusive; nt = no result given; & = joins results of further samples; [ ] = dose if it differs, or a comment.

SMILES	miR-21 reporter	GLA inh pH 4.5	Rango-impB inh	Rango release inh
CC(=O)Nc1sc(NC(=O)c2ccc(Cl)cc2)nc1-c1cccs1	-1.0%	-4.8	1.6%	?
Cc1cccc2c1NC(=O)C2=O	nt	nt	-4.4%	-27.6%
CCOCC(=O)Nc1cc(C(=O)Nc2ccccc2)ccc1Cl	-46.8%	-16.9	-2.5%	4.1%
Cc1cc(C)n2nc(SC(C)C(=O)N(C)C3CCCCC3)nc2n1 (stereo not given)	nt	nt	-1.9%	-5.8%
CS(=O)(=O)N(Cc1cc2ccccc2[nH]c1=O)C1CCCCC1	-3.7%	-4.9	1.9%	7.2%
O=C(CN1C(=O)CC(c2ccccc2)=Nc2ccccc21)NCc1ccco1	-4.3%	-4.0	-0.4%	21.4%
CCC1CN(C(=O)N2CCC(C(=O)NCc3cc(OC)c(OC)c(OC)c3)CC2)c2ccccc2O1 (stereo not given)	3.6%&3.3%	nt	-2.0%	2.8%
NC(N)=N/N=C/c1ccc(Cl)c([N+](=O)[O-])c1	19.7%	4.5	-0.2%	1.6%
c1nc(NCC2CCCO2)c2[nH]cnc2n1 (stereo not given)	nt	nt	-0.7%	10.1%
CCN(CC)c1ccc(NC(=O)COC(=O)C23CCC(=O)N2c2ccccc2S3)cc1 (stereo not given)	-4.2%	6.2	4.6%	-4.9%
CCCCCC(=O)NC(=S)Nc1ccc(NC(=O)c2ccco2)cc1	25.4%	-19.5	-0.2%	-7.9%
CCOCCCNc1ccc(N2C(=O)C3CCCCC3C2=O)cc1[N+](=O)[O-] (stereo not given)	2.7%	-2.0[21.1 µM]	-2.8%	-4.5%
Cc1nc(NC(=O)/C=C/c2ccc(C(C)(C)C)cc2)sc1C(=O)N(C)C	-1.0%	-4.5	2.1%	-2.5%
CCOC(=O)Cc1csc(SCC(=O)Nc2ccc3[nH]c(=O)[nH]c3c2)n1	nt	nt	-0.2%	0.4%
CCCCn1c(N)c(N(CCOC)C(=O)CSCc2ccc(C)cc2)c(=O)[nH]c1=O	nt	nt	-2.6%	-10.7%
N#CCc1nn(-c2ccccc2)c2ncnc(N)c12	-11.0%	0.9	-1.2%	10.3%
CCC(=O)NCCn1c(C)cc2ccccc21	-0.9%	7.1	?	?
CN1CCC(=NNC(=O)CN(c2cccc(Br)c2)S(C)(=O)=O)CC1	-2.8%	-9.4	0.0%	-6.1%
O=C(COC(=O)/C=C/c1ccccc1Cl)NCc1ccccc1	0.0%	4.3	-0.5%	1.0%
COC(=O)c1cc(-c2c(C)oc3cc(OC(C)C)ccc3c2=O)c(C)o1	0.4%	2.3	-3.1%	-3.2%
COc1ccc(C2=NCCn3nc4ccccc4c32)cc1	nt	nt	-3.5%	-3.9%
COC(=O)c1ccc(-c2noc(CN3C[C@H]4CC[C@H]3C4)n2)cc1	-21.5%	5.6	2.5%	-19.9%
CCOc1ccc(OCCN2C(=O)NC3(CCCc4ccccc43)C2=O)cc1 (stereo not given)	-12.0%	-16.5	2.8%	-3.4%
COc1ccc(NC(=O)CN2CCN(Cc3ccccc3)CC2)cc1	-1.6%	nt	0.2%	-9.7%
COc1cccc(C(C[N+](=O)[O-])c2c(C)[nH]n(-c3ccccc3)c2=O)c1 (stereo not given)	25.8%	nt	0.3%	2.6%
COC(=O)Cc1ccc(NC(=O)c2ccc3c(c2)C(=O)N(Cc2ccco2)C3=O)cc1	3.3%	nt	-2.0%	3.7%
CCCNC(=O)N1CCC(n2nccc2NC(=O)CCOc2ccccc2)CC1	-1.5%	nt	5.4%	-5.4%
CC(NC(=O)[C@@H](NC(=O)[C@@H]1Cc2ccccc2CN1)C(C)C)c1ccccc1 (stereo not given in full)	-2.4%	nt	0.9%	9.2%
COc1ccc(N(CC(=O)Nc2ccccc2C(=O)NCC(C)C)S(C)(=O)=O)cc1	-11.7%	8.3	7.1%	-6.2%
CCOc1ccccc1/C=c1\sc2nc(-c3ccco3)nn2c1=O	-6.7%	0.0	7.9%	5.5%
O=C(CCN1CCOCC1)N1c2ccccc2Sc2ccc(Cl)cc21	-4.5%	nt	-0.7%	-0.6%
Cc1cc(C(=O)N/N=C/c2c[nH]c3ccccc23)cs1	-40.8%	3.8	-0.4%	6.1%
N#CC/C(N)=N/NC(=O)CCCNc1ncc(C(F)(F)F)cc1Cl	-43.8%	?	-0.3%	3.9%
C#CCC(NC(=O)c1ccc(C(F)(F)F)cc1)C(=O)NCCC (stereo not given)	nt	nt	1.3%	5.7%
COc1cc(C(=O)OC2CCN(C)CC2)cc(OC)c1OC	1.2%	4.1	4.3%	-6.4%
Cc1ccc(CN2CC(C(=O)N3CCN(S(=O)(=O)c4ccccc4)CC3)CC2=O)cc1 (stereo not given)	nt	nt	-0.1%	3.3%
CCC(C(=O)NC1CCCCC1)n1c(SCc2cccc(F)c2)nc2ccncc21 (stereo not given)	22.5%&2.5%	-22.0	0.7%	-3.1%
Cc1cc(C)n(-c2ccc(C(=O)Nc3cc(C(F)(F)F)ccc3N3CCOCC3)cc2)n1	-4.7%	-0.3	-0.5%	1.8%
Cc1cccc(N2CC(C(=O)OCC(=O)c3c(N)n(CC(C)C)c(=O)n(C)c3=O)CC2=O)c1C (stereo not given)	nt	nt	0.0%	1.5%
Cc1nn(CCCC(=O)NCCc2ccccc2)c(=O)c2nccn12	-3.5%	nt	-0.6%	1.6%
CCN(CC(=O)Nc1ccc(OC)cc1)C(=O)CSCC(=O)Nc1cc(C)on1	nt	nt	-4.5%	-0.7%
O=C(c1ccc2c(=O)n(-c3ccccc3)c(=O)[nH]c2c1)N1CCN(c2ccc(F)cc2)CC1	13.5%	2.2	-1.0%	-1.9%
COc1ccc(CCNC(=O)C2CC(c3ccccc3F)=NO2)cc1 (stereo not given)	-16.7%	-7.4	0.2%	16.4%
CCOc1c(Br)cc(CNc2ccc3c(c2)OCCO3)cc1OC	0.5%	4.3	-4.9%	6.9%
CCOC(=O)CSc1snnc1C	nt	nt	-0.7%	-5.9%
COc1ccc(N(C(=O)c2ccco2)S(=O)(=O)c2cc(OC)ccc2OC)cc1	-2.4%	0.2	8.2%	-7.7%
CCOC(=O)c1sc(NC(=O)c2cncc(Br)c2)nc1C	-32.7%	-1.7	nt	nt
O=C(CSc1cccc[n+]1[O-])NCC1CCCCC1	-2.6%	1.3	0.8%	12.6%
CC(C)COP(=O)(c1ccc(N(C)C)cc1)C(O)c1ccccc1 (stereo not given)	-2.1%	nt	2.5%	6.4%
CCOC(=O)CSc1nc2ccccc2c(=O)n1NC(=O)c1ccccc1	2.6%	-2.3	0.8%	16.8%
O=C(c1ccccn1)N(CC1CCCO1)C1(C(=O)NC2CCCCC2)CCCCC1 (stereo not given)	-3.5%	5.8	0.2%	-6.2%
COc1ccccc1Nc1c2ccccc2nc2ccccc12	?	nt	-1.2%	-14.4%
COc1ccc2nc(NC(=O)[C@@H]3CCCN3C(=O)c3cccs3)sc2c1	-9.6%	-9.1	-3.3%	24.2%
O=c1oc(-c2ccccc2)nc2c1C1(CCCCC1)Cc1ccccc1-2	0.1%	-6.8	-1.2%	-3.7%
COCc1cc(CNC(=O)C2CCC(=O)N(Cc3ccccc3F)C2)[nH]n1 (stereo not given)	-6.6%	nt	-1.9%	0.6%
O=C(COc1ccccc1-c1ccccc1)NCCN1C(=O)S/C(=C\c2cccnc2)C1=O	-4.3%	-0.5	-0.5%	10.6%
COc1ccc(CCNC(=O)c2c(O)c3c([nH]c2=O)CCCC3)cc1	-7.2%	-1.0	3.9%	18.8%
CCCN(CC(=O)Nc1ccc(F)c(F)c1F)CC(=O)Nc1c(Cl)cccc1Cl	8.5%	-9.3	1.2%	-3.5%
CCC(=O)Nc1ccc(N2CCCCC2)c(C(=O)Nc2ccc(OC)cc2)c1	16.4%	nt	0.9%	-1.8%
CC1CCN(S(=O)(=O)c2cccc(C(=O)NNC(=O)c3ccco3)c2)CC1	-0.1%	0.3	-1.4%	2.4%

Later entries:
SMILES	miR-21 reporter	GLA inh pH 4.5	Rango-impB inh	Rango release inh
COC(=O)c1nc(NC2=NCCCCC2)n[nH]1	-1.9%	3.2	-0.1%	12.6%
CCc1ccccc1NC(=O)CSc1nnc(C2CC2)n1CC1CCCO1 (stereo not given)	6.2%	nt	0.4%	-0.6%
Clc1nc(Cl)nc(N(c2ccccc2)c2ccccc2)n1	-0.9%	4.1	-0.3%	-6.5%
C=CCn1c(C)nnc1SCC(=O)Nc1cc(S(=O)(=O)N2CCCC2)ccc1Cl	nt	nt	0.8%	0.2%
O=c1c2ccc([N+](=O)[O-])cc2ncn1CCOc1ccc(Cl)cc1	-7.8%	-3.4	-0.2%	-13.8%
CCCCCC(=O)N1CCN(CCN=CC2=C(O)CC(c3ccco3)CC2=O)CC1 (stereo not given)	-7.3%	-1.9	0.6%	-3.3%
Cc1ccc(NC(=O)c2cc3c(=O)oc4ccc(C)cc4c3s2)nc1	2.1%	-2.0	nt	nt
O=C(Nc1ccc(F)cc1)Nc1ccc(S(=O)(=O)N2CCCC2)cc1	nt	nt	4.2%	14.1%
COc1ccc(C2(CNC(=O)c3cc(OC)c(OC)c(OC)c3)CCCC2)cc1OC	nt	nt	-3.9%	-2.2%
Cc1nn(-c2ccc3ccccc3c2)c(=O)c2ccccc12	-64.9%	-0.9	0.6%	8.7%
O=C(CN1CCCCC1)Nc1ccccc1-c1ccccc1	1.1%	-2.8	1.0%	-2.7%
Cc1ccc(C(=O)NC(=S)NCC2CCCO2)cc1[N+](=O)[O-] (stereo not given)	-12.9%	-0.1	0.2%	5.6%

Molecules from the list above that have bromine (3):
SMILES	miR-21 reporter	GLA inh pH 4.5	Rango-impB inh	Rango release inh
CN1CCC(=NNC(=O)CN(c2cccc(Br)c2)S(C)(=O)=O)CC1	-2.8%	-9.4	0.0%	-6.1%
CCOc1c(Br)cc(CNc2ccc3c(c2)OCCO3)cc1OC	0.5%	4.3	-4.9%	6.9%
CCOC(=O)c1sc(NC(=O)c2cncc(Br)c2)nc1C	-32.7%	-1.7	nt	nt

Going on with the list.
SMILES	miR-21 reporter	GLA inh pH 4.5	Rango-impB inh	Rango release inh
COc1cc(C(=O)NC2CCN(C)CC2)ccc1Nc1ncc2c(n1)N(Cc1ccccc1)CCC(=O)N2C	nt	nt	-1.9%	0.2%
COc1cc(C2CC(=O)Nc3cc(C)c(C)cc32)cc(OC)c1OC (stereo not given)	19.8%	-2.8	5.6%	1.2%
CC(=O)Nc1cccc(NC(=O)c2ccc([N+](=O)[O-])cc2Cl)c1	-19.0%	0.1	-1.6%	0.4%
Nc1nc(COc2ccccc2)cs1	-30.5%	2.0	0.4%	-2.5%
O=C(O)CSC1CC(=O)N(c2ccc(Cl)cc2)C1=O (stereo not given)	1.0%	0.7	2.7%	0.0%
CN(C)c1nnnn1-c1ccc(Oc2ncc(C(F)(F)F)cc2Cl)cc1	10.0%	-8.4	1.6%	11.1%
O=C(Nc1cccc([N+](=O)[O-])c1)ONC1=NCCCCC1	0.8%	3.8	2.4%	-13.3%
COc1cc(CNCCN2CCOCC2)ccc1OCc1ccc(Cl)cc1	-32.6%	3.5	-0.7%	-10.8%
O=C(Nc1cccc(Cl)c1N1CCCC1)c1ccco1	1.8%	nt	0.1%	6.6%
COc1cc2c(cc1OC)C(/C=C/c1ccco1)=NCC2	15.2%	-5.4	?	8.2µM*
CC(NC(=O)c1cc2sccc2n1C)c1ccc2c(c1)OCCO2 (stereo not given)	12.1%	-2.1	4.9%	2.6%
O=S(=O)(c1ccc(-n2cnnn2)cc1)N1CCC(N2CCCCC2)CC1	-1.3%	5.6	4.1%	-4.0%
CCCC(=O)NNC(=O)CCC(=O)NCc1ccccc1	-6.1%	-3.0	2.1%	14.0%
Cc1cc(C)nc(SCCN(C)C)n1	1.3%	-0.4	-1.5%	5.8%
Cc1oc(-c2ccccc2F)nc1CS(=O)(=O)CC(=O)NCCCN(C)C1CCCCC1	1.8%	10.7	-1.7%	8.5%

High-throughput results (PubChem)

The list is partial; the hit share may differ from the screen's.
